# Bm FixLJ act: B. multivorans fixK reporter activation; 0.3% of 29,000 active; B. multivorans fixK-promoter GFP reporter, 18 h; stronger effect = higher value; z-score (no concentration beside the values); AID 1918990;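 active = replicate mean overnight rise in green fluorescent reporter signal, 3 or more SD over negative controls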;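 also: score is relative to vehicle wells of the plate; 300 nL library stock went into each well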
# The depositor's hits bear a star.
SMILES,Bm FixLJ act
CC(C)c1ccc(S(=O)(=O)Nc2ccc(O)c(Sc3nc4ccccc4s3)c2)cc1,-6.5
Nc1cc(-c2nccn2-c2ccc(CN3CCOCC3)cc2)ccn1,0.61
Cc1ccc2oc(=O)c3cnn(CC(=O)Nc4ccc(Br)cc4C)c3c2c1,-1.9
CCCCOC(=O)c1ccc(Nc2nc3ccc(C)cc3n3cnnc23)cc1,-0.54
CC(=O)Nc1cc(-c2ccccc2)nn1Cc1cccc(Cl)c1,-2.4
COc1ccc(Cl)cc1NC(=O)c1cc2c(=O)n3ccccc3nc2s1,0.27
Cc1cccc(-c2ncc(CN(CCN3CCOCC3)Cc3ccco3)cn2)c1,0.06
O=C1CN(C(=O)c2ccc(S(=O)(=O)N3CCCCC3)cc2)C(c2ccc(F)cc2)c2cc(Cl)ccc2N1 (stereo not drawn),0.22
Cc1cn2c(=O)cc(COc3ccc(Cl)cc3)nc2s1,-1.2
COc1cccc(CN2CCN(c3cc(C4CC(N)C4)ncn3)CC2=O)c1 (stereo not drawn),-2
CC1(C)CC(=O)c2cc(-c3nc(-c4ccc(Cl)cc4)cs3)c(=O)n(-c3cccc(F)c3)c2C1,-0.46
CCOc1ccccc1NC(=O)N1CCN(S(=O)(=O)c2ccc3c(ccn3C)c2)CC1,-1.6
Cc1cnccc1NCCNC(=O)Cc1cn(C)c2ccccc12,0.33
CN1CCN(CCC(=O)Nc2ccc(Cl)cc2)CC1,-2.6
Cc1nn(-c2nc(-c3ccccc3)cc(C(F)(F)F)n2)c(C)c1Cl,-0.93
CCCSc1ncc(Cl)c(C(=O)Nc2c(C(=O)Nc3ccccc3)oc3ccccc23)n1,-0.41
O=C1c2oc3ccccc3c(=O)c2C(c2ccccc2F)N1Cc1ccc2c(c1)OCO2 (stereo not drawn),-0.16
Cc1ccc2c(c1)C(c1ccccc1)N(C(=O)c1ccc(OC(C)C)cc1)CC(=O)N2 (stereo not drawn),-0.86
CC(=O)N1CCc2c(sc3nc(SCC(C)C)n(-c4ccc(F)c(Cl)c4)c(=O)c23)C1,-1.4
CCOc1ccc(NC(=O)CSc2ncn[nH]2)cc1,-2.5
COc1cccc(C(=O)N(Cc2cccc(F)c2)C2CCS(=O)(=O)C2)c1 (stereo not drawn),-1.2
CCN(CC)S(=O)(=O)c1ccc2c(c1)c(=O)c(C(=O)NCc1ccccc1OC)cn2C,-2.3
Cc1ccc(-n2c(Cc3ccccc3)nnc2SCc2nc(-c3cccs3)no2)cc1C,-0.1
COc1ccc(CCNC(=O)CCn2c(=O)c3ccccc3n(Cc3ccccc3F)c2=O)cc1OC,-0.67
O=C(c1ccc(O)cc1)N1CCCn2nc(C(O)C3CC3)cc2C1 (stereo not drawn),0.67
# Continued:
SMILES,Bm FixLJ act
CCOC(=O)c1ccccc1NC(=O)Nc1cc2c(cc1N1CCCC1)n(C)c(=O)n2C,0.73
CC(C)n1cnnc1CCNC(=O)N(C)Cc1ccccc1-n1cccn1,-0.49
Cc1ccc(CN2CC(C(=O)NCc3c(C)noc3C)CC2=O)cc1 (stereo not drawn),0.63
Cc1ccc(NC(=O)CCCc2nnc3n(C)c(=O)c4sccc4n23)cc1F,-0.86
CN(C)c1ccc(CNC(=O)C2CCCN(S(=O)(=O)c3ccc4c(c3)oc(=O)n4C)C2)cc1 (stereo not drawn),-1.4
CN1C(=O)CC(C(=O)Nc2ccc(C(=O)O)cc2)SC1=Nc1ccc(Cl)cc1 (stereo not drawn),-1.1
Cc1cc(Br)ccc1NC(=O)CSc1c2c(nc3ccccc13)CCC2,-0.48
Cc1ccc(C)c(NC(=O)Cn2c(=O)n(CC3CCCO3)c(=O)c3ccccc32)c1 (stereo not drawn),1.2
COc1ccc2oc(=O)cc(CN3CCN(C(=O)c4ccccc4F)CC3)c2c1,0.75
COCCCN1CCOC2(CCN(C(=O)Cc3ccsc3)CC2)CC1=O,-0.36
Cc1ccc(-c2ccc(C(=O)N(CCCO)Cc3ccncc3)cc2)o1,-1.7
COCCCC1CCCN(C(=O)c2cnc(-c3cccnc3)nc2C)C1 (stereo not drawn),-1.1
CCOC(=O)c1c(NC(=O)CSc2cn(CCNC(=O)c3ccc(OC)c(OC)c3)c3ccccc23)sc2c1CCCC2,0.27
O=C1CC(c2ccc(Br)cc2)c2c(ccc3ccccc23)N1 (stereo not drawn),-0.73
FC(F)(F)c1cccc(Nc2c3c(nc4ccc(Cl)cc24)CCC3)c1,1.6
Cc1ccc(-n2cc(CN3CCN(C)C4CS(=O)(=O)CC43)cn2)cc1 (stereo not drawn),-1.9
CCCc1nc(C)c(CNC(=O)CCOc2ccccc2)s1,-0.26
CC(Cc1ccsc1)Nc1nc(-c2ccncc2)nc2c1cnn2C (stereo not drawn),-0.81
O=C(Cn1c(=O)n(Cc2ccco2)c(=O)c2ccccc21)Nc1ccc(Cl)cc1Cl,-2.9
Cn1cc(C(=O)NCc2ccccc2Cl)c(=O)c2cc(S(=O)(=O)N3CCCCCC3)ccc21,-0.89
CCOc1cc2sc(N3CCC(C(=O)Nc4ccc(CC)cc4)CC3)nc2cc1Br,-0.82
COc1ccc(-n2c(=O)c3sc4ccccc4c3n(CC(=O)Nc3cccc(C)c3)c2=O)cc1,-2.5
Cc1c(C(=O)O)oc2c1-c1nn(Cc3ccc(Cl)cc3)cc1CC2,0.51
CCOC(=O)c1cc(-c2ccc(C)cc2)nn1Cc1ccccc1,1.1
CCCC(=O)Nc1ccc(NC(=O)CCS(C)(=O)=O)cc1OC,-0.8

# Ordered by molar mass (high to low): 7 of the compounds above
SMILES,Bm FixLJ act
Cc1ccc(C)c(NC(=O)Cn2c(=O)n(CC3CCCO3)c(=O)c3ccccc32)c1 (stereo not drawn),1.2
COc1ccc2oc(=O)cc(CN3CCN(C(=O)c4ccccc4F)CC3)c2c1,0.75
COCCCC1CCCN(C(=O)c2cnc(-c3cccnc3)nc2C)C1 (stereo not drawn),-1.1
O=C1CC(c2ccc(Br)cc2)c2c(ccc3ccccc23)N1 (stereo not drawn),-0.73
Cc1ccc(-c2ccc(C(=O)N(CCCO)Cc3ccncc3)cc2)o1,-1.7
Cc1ccc(CN2CC(C(=O)NCc3c(C)noc3C)CC2=O)cc1 (stereo not drawn),0.63
CCOC(=O)c1cc(-c2ccc(C)cc2)nn1Cc1ccccc1,1.1

# Next part:
SMILES,Bm FixLJ act
Cc1ccc2c(c1)N(CCC(=O)NCc1ccc(F)cc1)C(=O)CO2,0.41
CNC(=O)C1(NC(=O)C(c2cccnc2)N2CCCC2)CCCCC1 (stereo not drawn),-2.6
Cc1ccc(NC(=O)CN(C)S(=O)(=O)c2cccc3cccnc23)cc1F,-1.9
Cc1cc2nn(-c3ccccc3)nc2cc1NC(=O)COc1ccc(Cl)cc1,-0.18
Cc1ccccc1CN1C(=O)C(O)(CC(=O)c2cccc(Br)c2)c2ccccc21 (stereo not drawn),0.19
O=C(O)c1cc(S(=O)(=O)NC2COCC2Cc2ccncc2)ccc1O (stereo not drawn),0.28
Cc1ccc(-c2cc(C(F)(F)F)n3ncc(-c4ccc(Cl)cc4)c3n2)cc1,0.47
Cc1ccc(-n2nc3ccc(NC(=O)c4oc5ccc(C)cc5c4C)cc3n2)cc1,0.12
COc1ccccc1NC(=O)c1ccccc1NC(=O)c1ccccc1,-0.36
CN1[C@@H]2CC[C@H]1CC(OC(=O)C(CO)c1ccccc1)C2 (stereo partly drawn),-0.66
CC(=O)c1cccc(NC(=O)Cn2cc(C(=O)c3cccc(Cl)c3)c(=O)c3ccc(C)nc32)c1,-12
Cc1onc(-c2ccccc2)c1C(=O)N[C@@H]1C(=O)N2[C@@H]1SC(C)(C)[C@@H]2C(=O)O,-1.4
CN(C)c1nc(-c2ccccc2)nc2c1CCN(C(=O)c1ccc(N)nc1)C2,-1.9
CCc1c(C)nc2nncn2c1Nc1cccc(C)c1,-2.8
COc1ccc(C(NC(=O)CC(C)(C)C)C2CC(O)C2)cn1 (stereo not drawn),-1.1
C=CCNC(=O)Cn1nc(-c2ccccc2)n(CCc2ccccc2)c1=O,-0.44
COc1ccc(-c2noc(CN(C(=O)c3ccc(C)cc3C)C(C)C)n2)cc1,-0.35
COc1ccccc1N1CCN(C(=O)c2cc3c(=O)n(C)c4ccccc4c3s2)CC1,-0.3
CCOc1ccc(Nc2c(S(=O)(=O)c3ccc(C)cc3)cnc3cc(OC)c(OC)cc23)cc1,-0.5
CC(C)c1nnsc1CNC(=O)Nc1ccc(S(C)(=O)=O)cc1,-0.34
Cc1ccc(Nc2c(-c3c[nH]c4ccccc34)nc3cc(C)ccn23)cc1,0.58
Cc1ccc2nc(SCC(=O)Nc3ccc(C#N)cc3)[nH]c2c1,-0.34
CN(Cc1cccnc1)Cc1cccc(C(=O)Nc2ccc3c(cnn3C)c2)c1,-0.88
O=c1[nH]nc(C2CCN(c3ncccn3)CC2)n1Cc1ccccc1,-1.9
CNC(=O)Cn1nc(-c2ccc(Cl)cc2)c2ccccc2c1=O,-0.97

# A different layout for part of the listing above:
Cc1ccccc1CN1C(=O)C(O)(CC(=O)c2cccc(Br)c2)c2ccccc21 (stereo not drawn)
  Bm FixLJ act: 0.19

Cc1ccc(-c2cc(C(F)(F)F)n3ncc(-c4ccc(Cl)cc4)c3n2)cc1
  Bm FixLJ act: 0.47

CN1[C@@H]2CC[C@H]1CC(OC(=O)C(CO)c1ccccc1)C2 (stereo partly drawn)
  Bm FixLJ act: -0.66

# Remaining list, next part:
SMILES,Bm FixLJ act
Nc1nc2nc(-c3ccccc3)cc(=O)n2[nH]1,-1.8
Cc1nc(CN2CCN(C(=O)Nc3ccc(-n4cncn4)cc3)CC2)cs1,0.38
CCCN(Cc1nccn1C)c1cc(C2CCOC2)ncn1 (stereo not drawn),-1.2
COc1ccc(OC)c(NC(=O)c2cc3c(=O)oc4ccccc4c3s2)c1,0.47
Cc1oc(-c2cccc(Cl)c2)nc1CN1CCC(C(=O)NCc2ccc(F)cc2)CC1,-0.65
COc1ccccc1N1CCN(C(=O)c2nc(SC)ncc2Cl)CC1,-0.26
C#C[C@]1(O)CC[C@H]2[C@@H]3[C@H](C)CC4=C(CCC(=O)C4)[C@H]3CC[C@@]21C,-1.4
Cc1ccccc1C(C(=O)O)N(C)Cc1cc(-c2ccncc2)no1 (stereo not drawn),-0.37
Cc1nn2cc(CNC(=O)CC3CC4C=CC3C4)nc2s1 (stereo not drawn),-0.88
C[C@@H]1CCC[C@H](C)N1NC(=O)c1ccc(Cl)c(S(N)(=O)=O)c1,-0.76
Cc1cccc(NC(=O)/C(C#N)=C/c2ccco2)c1,0.37
O=S(=O)(c1ccc(Br)cc1)c1nc(-c2ccco2)oc1SCc1ccccc1F,-1.7
Cc1ccc(-c2nc(CS(=O)(=O)CC(=O)Nc3ccc(Br)cc3F)c(C)o2)cc1,0.41
CC(C)(C)c1ncc2c(n1)CN(C(=O)c1cccc(OCC(N)=O)c1)C2,-0.77
O=C(CC1CCc2ccccc21)N1CCc2c(nc[nH]c2=O)C1 (stereo not drawn),-3.7
Fc1ccccc1CN1CCn2nc(CNc3cnccn3)cc2C1,0.58
Cc1ccc(O)c(NC(=O)c2cc(-c3ccc4c(c3)OCO4)on2)c1,-2.6
CC(=O)c1ccc(NC(=O)c2cc(C)nn2-c2ccccc2)cc1,-0.97
COc1ccc(C(=O)CCC(=O)N2CCC(O)(c3cccnc3)CC2)cc1,-1.9
Cc1noc(C)c1CN1C(=O)C2CCC1CN(C(=O)CCC1CCCC1)C2 (stereo not drawn),-0.05
COc1ccc(CNC(=O)CS(=O)Cc2nc(-c3cccc(C)c3)oc2C)cc1 (stereo not drawn),-0.55
CCOc1ccc(CNc2nc3nc(C)c(Cc4ccccc4)c(=O)n3[nH]2)cc1,-1.6
CCOc1ccc(NC(=O)c2ncn(-c3ccccc3)n2)cc1,0.02
CS(=O)(=O)N1CCCC1C(=O)NCCCc1nc2ccccc2[nH]1 (stereo not drawn),-1.2
COc1ccc(C(=O)NCCn2cc(SCc3cccc(F)c3)c3ccccc32)cc1OC,1
# Remaining list, next part.
SMILES,Bm FixLJ act
CN(C)C(=O)CN1CCOC2(CCN(C(=O)CC3CCCC3)CC2)CC1=O,-0.48
CCOC(=O)c1ccc(Nc2nc(N)c3cc(OC)c(OC)cc3n2)cc1,-0.45
CCOCCCn1c(=N)c(S(=O)(=O)c2ccccc2)cc2c(=O)n3cc(C)ccc3nc21,-4.3
Cc1[nH]nc(CCC(=O)N2CC3CCCC(C2)N(C)C3)c1C (stereo not drawn),-0.25
C[C@@H]1C[C@H]2[C@@H]3CCC4=CC(=O)C=C[C@]4(C)[C@@]3(F)[C@@H](O)C[C@]2(C)[C@@]1(O)C(=O)CO,-1.8
CCc1nn(C)c(NC(=O)N(Cc2ccsc2)CC2CCCO2)c1C (stereo not drawn),-0.15
COc1cc(C2c3c(oc4ccc(F)cc4c3=O)C(=O)N2Cc2ccc3c(c2)OCO3)ccc1O (stereo not drawn),-1.5
COc1ccccc1Oc1ncccc1CNC(=O)Nc1c(C)noc1C,-1.1
CCN(CC)C(=O)C1=C(C)Nc2nc3ccccc3n2C1c1ccccc1F (stereo not drawn),2.6
CCN1CCN(C(=O)c2ccc3c(c2)N(Cc2ccc(Cl)cc2)C(=O)c2ccccc2S3=O)CC1 (stereo not drawn),-1.4
Cc1cc(Sc2ccc(Cl)cc2)nc2ccccc12,-1.4
CCCCOc1ccc(CN2C(=O)C(=O)c3cc(C)ccc32)cc1OC,-0.33
COc1ccc(NC(=O)CCCSc2nc(-c3ccco3)cc(C(F)(F)F)n2)cc1OC,-2.3
CCN1C(=O)c2ccccc2S(=O)c2ccc(C(=O)N3CCN(c4cc(Cl)ccc4C)CC3)cc21 (stereo not drawn),-0.94
O=C(CN1C(=O)COc2ccc(S(=O)(=O)N3CCCC3)cc21)N1CCN(c2cccc(C(F)(F)F)c2)CC1,-0.39
O=C(Nc1cc(-c2ccccc2)sc1C(=O)O)c1cccc(F)c1,-2
COc1ccccc1C(=O)Nc1c(C(=O)c2ccccc2)oc2ccccc12,3.7*

# Source: PubChem (ICCB-Longwood Screening Facility, Harvard Medical School)

# The list is partial. The share of hits here may be higher or lower than overall.
